# SARS PLpro yeast: SARS-CoV PLP inhibition in yeast; S. cerevisiae expressing SARS-CoV PLpro, growth rescue; control for the full effect not named in the record; Potency, µM (series often up to 32.9 µM), without a hit: at the highest dose activity, positive = growth rescue; 330,000 compounds, 0.19% hits; AID 485353; also: 0% is about no effect; nearly all actives have a fitted effect of over 55% in size; growth read by luminescence after 48 h
# RE007 growth inh: less growth of the S. pombe RE007 Vpr strain; S. pombe RE007 Vpr strain, BacTiter-Glo ATP luminescence, 24 h; control for the full effect not named in the record; Potency, µM (highest dose often 92.2 µM), inactives show at the highest dose activity change, negative = less growth; 360,000 compounds, 0.21% hits; AID 651644; active = well fitted falling curve with a large enough effect; inconclusive = small, poorly fitted or top-dose-only effect; inactive = no such curve, though single readings can be large or run the other way;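 also: % is scaled to controls: 0 for no effect and ±100 for the full control effect; nearly all actives have a fitted effect of over 50% in size; the assay follows cell death caused by Vpr and the record does not say whether a fall means rescue or toxicity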
#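 Fission yeast strain RE007, carrying one chromosomally integrated HIV-1 vpr copy, was seeded at OD 0.01 in PMG+AL medium with 23 nL pinned compound. After 24 h at 30 °C and 99% humidity, viability was read by BacTiter-Glo luminescence.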
# Cruzain inh noDet: blocks cruzain activity in detergent-free assay; 200,000 compounds, 2.3% hits; purified cruzain, Z-FR-AMC fluorescence, no detergent; AID 1476; P25779; Potency, µM, inactives show max response, negative = inhibition, usual class: inhibitors; active = well fitted curve in the direction sought with a large enough effect; inconclusive = small, poorly fitted or top-dose-only effect, or another doubt; inactive = no such curve, though single readings can be large; an effect the other way counts as inactive or inconclusive;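 also: plate controls were enzyme without inhibitor for no effect and buffer without enzyme for full effect; nearly all actives have a fitted effect of over 40% in size; top concentration of the series not given in the record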
# Target sequence (P25779 123-467 limits assumed): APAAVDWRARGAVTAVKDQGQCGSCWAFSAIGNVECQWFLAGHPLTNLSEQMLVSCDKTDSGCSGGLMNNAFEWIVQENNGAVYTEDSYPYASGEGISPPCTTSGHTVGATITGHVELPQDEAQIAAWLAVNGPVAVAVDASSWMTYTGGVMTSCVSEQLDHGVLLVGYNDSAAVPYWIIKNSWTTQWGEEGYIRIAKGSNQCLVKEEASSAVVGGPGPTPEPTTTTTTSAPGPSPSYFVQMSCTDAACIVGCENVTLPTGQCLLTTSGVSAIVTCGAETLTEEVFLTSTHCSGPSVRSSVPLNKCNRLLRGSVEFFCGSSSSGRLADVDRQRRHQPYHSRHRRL
#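 Detergent-free condition (0.00005% Triton X-100) in acetate buffer pH 5.5 with DTT. 1.5 nM enzyme and compound were pre-mixed 15 min, then 2 uM Z-FR-AMC substrate added; reaction progress from fluorescence change between first and third reads (60 s).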
# MARV entry inh: Marburg virus entry inhibition. Marburg virus pseudotyped entry inhibition, cell reporter; control for the full effect not named in the record; about a third of the inactives were read at about 46 µM. Potency, µM (highest dose often 37.8 µM), inactives show top-dose activity change, negative = inhibition, actives largely listed as inhibitors. 300,000 compounds, 1.8% hits; active = well fitted inhibition curve with a large enough effect; inconclusive = small, poorly fitted or top-dose-only effect, or effect the other way; inactive = flat fitted curve, though single readings scatter; tested in HEK293 cells; about a fifth of its hits are not listed in these tables; also: % is scaled to controls: 0 for no effect and ±100 for the full control effect; luciferase read-out
# NS1 function inh: influenza NS1 inhibition. 270,000 compounds, 0.4% hits. Potency, µM (series often up to 46.1 µM), without a hit: at the top dose activity, positive = more growth. S. cerevisiae slowed by influenza A NS1, growth recovery by OD600. AID 2326; also: actives are rising curves; nearly all actives have a fitted effect of over 50% in size
#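 A cell-based growth assay was used: compounds that relieve NS1-induced slow growth of budding yeast raise OD600. Assay medium was yeast nitrogen base with ammonium sulphate and -URA supplement, pH 6.0, with 2% galactose.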
# Cruzain Triton: blocks cruzain activity in presence of Triton detergent. P25779. purified cruzain, Z-FR-AMC fluorescence, 0.01% Triton. Potency, µM, for the others: max response, negative = inhibition, actives largely listed as inhibitors. 200,000 compounds, 0.43% hits; active = well fitted curve in the direction sought with a large enough effect; inconclusive = small, poorly fitted or top-dose-only effect, or another doubt; inactive = no such curve, though single readings can be large; an effect the other way counts as inactive or inconclusive;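 also: plate controls were neutral wells for no effect and buffer without enzyme for full effect; nearly all actives have a fitted effect of over 40% in size; top concentration of the series not given in the record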
#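 Steps: dispense cruzain (1.5 nM final) in acetate buffer pH 5.5 with DTT and 0.01% Triton X-100; pin-transfer compounds; incubate 15 min RT; add Z-FR-AMC (2 uM final); read fluorescence every 30 s, using the 60 s intensity change.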
# Lassa entry inh: Lassa virus entry inhibition | Lassa virus pseudotype entry inhibition, cell reporter; control for the full effect not named in the record | Potency, µM (top dose mostly 37.9 µM), for inactives: top-dose activity change, negative = inhibition, most hits filed as inhibitors | 300,000 compounds, 1.2% hits; active means well fitted inhibition curve with a large enough effect; inconclusive means small, poorly fitted or top-dose-only effect, or effect the other way; inactive means flat fitted curve, though single readings scatter; tested in HEK293 cells; also: % is scaled to controls: 0 for no effect and ±100 for the full control effect; nearly all actives have a fitted effect of over 50% in size; luciferase read-out
# 2A StopGo: FMDV 2A StopGo reporter, luciferase signal; human cells with a luciferase reporter of 2A StopGo recoding; control for the full effect not named in the record; AID 1159524; Potency, µM (titrated, usually from 57.9 µM), without a hit: at the highest dose signal change, negative = less light; 410,000 compounds, 1.2% hits; active = well fitted falling curve with a large enough effect; inconclusive = small, poorly fitted or top-dose-only effect; inactive = no such curve, though single readings can be large or run the other way; tested in HEK293T cells; also: % is scaled to controls: 0 for no effect and ±100 for the full control effect; nearly all actives have a fitted effect of over 45% in size; luciferase light after 4 h
# The depositor's hits bear a star; ? = inconclusive; / = not tested or not shown; & = joins results of further samples; [ ] = another dose, or the depositor's remark. Unless noted, calls follow the shape of the dose curve; as a rule, active means well fitted rising curve with a large enough effect; inconclusive means small, poorly fitted or top-dose-only effect; inactive means no such curve, though single readings can be large or run the other way. Potency is read from the fitted curve at half-maximal effect.
SMILES,SARS PLpro yeast,RE007 growth inh,Cruzain inh noDet,MARV entry inh,NS1 function inh,Cruzain Triton,Lassa entry inh,2A StopGo
COc1ccc(N=NC2C(=O)N(c3ccccc3)N=C2C)cc1 (stereo not given),1%,-3%,/,/,2%,/,/,17%
COC(=O)c1ccc(NC(=O)C2CC(=O)OC2c2ccccc2)cc1 (stereo not given),-5%,-4%,/,25%,-4%,/,14%,-1%
CCSc1nnc([C@@H](N)Cc2c[nH]c3ccccc23)o1,-10%,-9%,7%,7%,-9%,2.3%,-1%,24%
COc1ccc(/C(N)=N/OC(=O)c2ccc(Br)o2)cc1,-2%,5%,/,?,-16%,/,16%[46.1 µM],13%
CCC(=O)N1N=C(c2ccc(C)o2)CC1c1ccc(OC)cc1 (stereo not given),0%,5%,/,/,-6%,/,/,25%
Cc1sc2c(c1C)c(=O)n(Cc1ccccc1)c(=O)n2Cc1ccc(F)cc1,/,/,-4%,-21%[46.1 µM],/,-1.5%,-2%[46.1 µM],-11%
CCOCc1[nH]c(=S)[nH]c(=O)c1Cc1ccc(OC(C)C)cc1,1%,14%,/,/,2%,/,/,-8%
COc1cc(C(=O)Nc2nnc(C3CC3)s2)ccc1OCc1c(C)noc1C,1%,-21%,/,4%[46.1 µM],/,/,3%,-25%
Cc1ccc(S(=O)(=O)N2CCC(C(=O)N3CCC3)CC2)cc1,-7%,9%,/,3%[46.1 µM],-2%,/,-1%[46.1 µM],-16%
CCc1ccc(S(=O)(=O)c2cn(C)c3cc(OC)c(OC)cc3c2=O)cc1,4%,6%,?,-16%&-16%[46.1 µM],7%,-1.3%,5%[46.1 µM],-13%&-4%
Oc1ccc2ccccc2c1N=Nc1ccc(F)cc1,-1%&-2%,-14%,/,-2%&-2%,?,/,-22%,3%
CC(=O)NC(CC(=O)OCC(=O)c1c(N)n(C)c(=O)n(C)c1=O)c1ccccc1 (stereo not given),3%,-11%,/,3%[46.1 µM],/,/,-20%,4%
CCC1CCCCN1S(=O)(=O)c1ccc(C(=O)Nc2nnc(-c3ccccc3Cl)o2)cc1 (stereo not given),?,5%,?,?,-7%,-2.0%,?,-3%
O=C(O)c1ccc(COc2ccccc2/C=C2\NC(=O)N(Cc3ccc(F)cc3)C2=O)cc1,2%,-20%,/,-2%[46.1 µM],/,/,-16%,12%
CC(=O)OCC(=O)[C@@]1(O)CC[C@H]2[C@@H]3CCC4=CC(=O)CC[C@]4(C)[C@H]3[C@@H](O)C[C@@]21C,2%,13%,-6%,4%,0%,5.0%,-3%,-23%&-13%
CCn1ccc(C(=O)Nc2ccsc2C(=O)OC)n1,-9%,1%,/,/,-56%,/,/,26%
COc1ccc(NC(=O)COC(=O)C2CC(=O)N(Cc3ccc(C)cc3)C2)cc1 (stereo not given),0%,0%,/,9%[46.1 µM],-13%,/,-3%,-8%
O=C(NC1CCCC1)C(c1ccncc1)N(C(=O)c1ccco1)c1ccccc1 (stereo not given),14%,1%,/,-4%,6%,/,5%,-6%
O=c1[nH]c(=S)n(-c2ccccc2Cl)c(O)c1C=NCCN1CCNCC1,-1%,-4%,/,/,2%,/,/,-4%
Cc1ccc(NC(=O)Cn2nnc(-c3nc(-c4ccncc4)no3)c2N)c(C)c1,/,/,8%,/,/,-2.2%,0%[46.1 µM],-11%
O=C1OCCC1Sc1ncnc2sc3c(c12)CCC3 (stereo not given),8%,?,-16%,-18%,0%,-1.7%,8%,-4%
CNCCOc1nc(N2CCOCC2)nc(C)c1[N+](=O)[O-],-1%,-8%,-5%,24%[46.1 µM],-5%,-4.3%,-11%,20%
CC(C)N1CC(COc2ccccc2Cl)OC1=O (stereo not given),/,23%,/,7%[46.1 µM],/,/,3%,12%
CC(C)CC(=O)NC(=S)Nc1ccc(S(=O)(=O)NC(C)(C)C)cc1,20%,0%,0%,?,-3%,-16%,?,10%
COc1ccc(C2CC(=O)Oc3cc(O)cc(O)c32)cc1 (stereo not given),0%,-14%,/,/,6%,/,/,-17%

# Reformatted with values under each structure: part of the list above
# The line under a structure holds: SARS PLpro yeast	RE007 growth inh	Cruzain inh noDet	MARV entry inh	NS1 function inh	Cruzain Triton	Lassa entry inh	2A StopGo
> O=C1OCCC1Sc1ncnc2sc3c(c12)CCC3 (stereo not given)
    8%	?	-16%	-18%	0%	-1.7%	8%	-4%
> CNCCOc1nc(N2CCOCC2)nc(C)c1[N+](=O)[O-]
    -1%	-8%	-5%	24%[46.1 µM]	-5%	-4.3%	-11%	20%

# The listing continues:
SMILES,SARS PLpro yeast,RE007 growth inh,Cruzain inh noDet,MARV entry inh,NS1 function inh,Cruzain Triton,Lassa entry inh,2A StopGo
CSc1nc(Cc2ccccc2)cc(=O)[nH]1,1%,6%,/,-3%[46.1 µM],-4%,/,3%[46.1 µM],13%
CCS(=O)(=O)c1ccc(OC)c(N=Nc2ccc(O)c3ncccc23)c1,?,18%,/,?,/,/,?,?
COc1ccc(-c2c(-c3cc(OC)cc(OC)c3)n(C)c3ccc(-c4cccc5[nH]ccc45)cc23)cc1,6%,12%,/,1%,/,/,/,-10%
Cn1cnc2c(NCc3ccccc3)nc(NCCO)nc21,/,/,-4%&-4%&6%,?,7%,-2.2%&1.8%&1.5%,10%,-17%[97.4 µM]
COc1ccc(C2C(C#N)=C(N)OC3=C2C(=O)CC(C)C3)c(OC)c1OC (stereo not given),5%,2%,-5%,-6%,0%,1.3%,-20%,19%
COC(=O)c1cc2sccc2n1Cc1nc(-c2cccc(Br)c2)oc1C,/,/,-14%,4%[46.1 µM],/,-2.9%,/,-2%
CCn1cc(C(=O)N2CCCC(C(=O)c3ccc4ccccc4c3)C2)cn1 (stereo not given),1%,-5%,/,?,-33%,/,-49%,-14%
CN(CC(=O)Nc1ccc(F)cc1)S(=O)(=O)c1ccc2c(c1)c(=O)n(C)c(=O)n2C,-1%,-8%,/,-15%[46.1 µM],-6%,/,-25%[46.1 µM],-22%
O=C(OCC1OC(n2ccc(=O)[nH]c2=O)C(Cl)C1O)c1ccccc1 (stereo not given),-2%,-7%,/,?,2%,/,6%,9%
Cc1sc2ncn(CC(=O)NCCCC(=O)N3CCN(Cc4ccc5c(c4)OCO5)CC3)c(=O)c2c1C,-1%,-8%,/,-18%,-2%,/,-13%,?
Cc1cc(=O)oc2cc(O[C@@H]3O[C@H](CO)[C@@H](O)[C@H](O)[C@H]3O)ccc12,1%,-12%,/,/,-2%,/,/,-15%
O=C(N1CCOCC1)N(Cc1ccccc1)c1ccccn1,7%,-19%,20%,-10%,-8%,5.7%,-2%,-2%
CCOC(=O)c1cc(C)n(CC2CCC(C(=O)Nc3ccc(C(C)=O)cc3)CC2)c1C (stereo not given),/,/,?,/,/,-8.0%,1%[46.1 µM],?
Cc1ccc(C(=O)CSc2nccn2-c2ccccc2)cc1,-7%,-17%,2%,?,-10%,-2.8%,13%,15%
c1cncc(CNc2ccc3c(c2)OCO3)c1,-24%,-18%,-6%,?,7%,-1.8%,0%,1%
CC(C)n1c(O)c(N=NC(=O)Cn2ccc(C(F)(F)F)n2)c2ccccc21,13%,/,13%,?,-6%,-4.2%,-16%,0%
COc1ccc(C2C(C(=O)NCc3ccccn3)c3ccccc3C(=O)N2C)cc1OC (stereo not given),3%,-8%,-2%,9%&9%,1%,-0.6%,1%,-7%
N#Cc1cc([N+](=O)[O-])ccc1NC(=O)COC(=O)C1CCC(=O)N1 (stereo not given),-2%,-13%,/,18%,/,/,3%,-18%
O=C(OCCN1CCCCC1)C1(c2ccccc2)CCCC1,1%,2%,/,?,7%,/,?,-18%
COc1cccc(CNC(=O)CCN2C(=O)[C@@H]3Cc4ccccc4CN3C2=O)c1,3%,5%,/,/,5%,/,/,-10%
c1cncc(-c2nc(NCC3CCCO3)c3ccccc3n2)c1 (stereo not given),-2%,-9%,/,?,1%,/,?,3%
O=C(CCS(=O)(=O)c1cc2c(cc1Cl)NC(=O)CO2)NCCc1ccc(Cl)cc1,/,/,13%,/,/,-5.0%,-5%[46.1 µM],-23%
CCOC(=O)C1(CC2CC2)CCN(Cc2cnc(-c3ccc(OC)cc3)nc2)CC1,1%,4%,/,?,-1%,/,-25%,?
COc1ccc(Cl)cc1C(=O)Nc1ccc2c(c1)OCO2,-14%,?,3%,28%,-87%,-5.6%,9%,15%
Oc1[nH]c2ccc(Br)cc2c1N=NC(=S)N1CCOCC1,-1%,13%,/,/,-37%,/,/,3.2µM*
COc1ccc(-c2cc(C)nc(SCc3cccc(C(=O)O)c3)n2)cc1,-7%,-1%,26%,2%,7%,-12%,1%,6%
COc1ccc(-n2ccn3c(CC(C)(C)CC(=O)O)nnc3c2=O)cc1,/,/,-8%,-16%[46.1 µM],/,-3.1%,0%[46.1 µM],1%
c1coc(CSCc2cn3cccnc3n2)c1,5%,1%,-4%,24%,-9%,-2.8%,?,26%
CC1(C)CC(=O)C2=C(C1)N(c1ccccc1)C(N)=C(C#N)C2c1ccsc1 (stereo not given),-2%,7%,-4%,-7%,-1%,-4.6%,-12%,0%

# A draw from above in order of number of heavy atoms, lowest first:
SMILES,SARS PLpro yeast,RE007 growth inh,Cruzain inh noDet,MARV entry inh,NS1 function inh,Cruzain Triton,Lassa entry inh,2A StopGo
c1cncc(CNc2ccc3c(c2)OCO3)c1,-24%,-18%,-6%,?,7%,-1.8%,0%,1%
Cc1ccc(C(=O)CSc2nccn2-c2ccccc2)cc1,-7%,-17%,2%,?,-10%,-2.8%,13%,15%
N#Cc1cc([N+](=O)[O-])ccc1NC(=O)COC(=O)C1CCC(=O)N1 (stereo not given),-2%,-13%,/,18%,/,/,3%,-18%
COc1ccc(-c2cc(C)nc(SCc3cccc(C(=O)O)c3)n2)cc1,-7%,-1%,26%,2%,7%,-12%,1%,6%
CC1(C)CC(=O)C2=C(C1)N(c1ccccc1)C(N)=C(C#N)C2c1ccsc1 (stereo not given),-2%,7%,-4%,-7%,-1%,-4.6%,-12%,0%

# Source: PubChem
